VACV mCherry inh: qHTS for Stage-Specific Inhibitors of Vaccinia Orthopoxvirus: mCherry Reporter Primary qHTS. Vaccinia virus mCherry reporter infection, fluorescence; about a quarter of the inactives have no number. Potency, µM (doses to about 36.5 µM), for inactives: top-dose activity change, negative = inhibition, usual class: inhibitors. 310,000 compounds, 0.63% hits. AID 720579, 2013; active = well fitted inhibition curve with a large enough effect; inconclusive = small, poorly fitted or top-dose-only effect; inactive = no such curve, though single readings can be large or run the other way; tested in A549 cells; also: nearly all actives have a fitted effect of over 35% in size; inactives centre near -10
VACV Venus inh: qHTS for Stage-Specific Inhibitors of Vaccinia Orthopoxvirus: Venus Reporter Primary qHTS; 330,000 compounds, 0.46% hits; Potency, µM (highest dose often 36.5 µM), without a hit: at the highest dose activity change, negative = inhibition, actives largely listed as inhibitors; Vaccinia virus Venus reporter expression, fluorescence; active means well fitted inhibition curve with a large enough effect; inconclusive means small, poorly fitted or top-dose-only effect; inactive means no such curve, though single readings can be large or run the other way; tested in A549 cells; also: nearly all actives have a fitted effect of over 30% in size; inactives centre near -10
Active calls of the source: *; i = inactive; ? = inconclusive; · = not tested or not shown; & = joins results of further samples; [ ] = remark or other dose. % is scaled to controls: 0 for no effect and ±100 for the full control effect; potency is read from the fitted curve at half-maximal effect.

SMILES	VACV mCherry inh	VACV Venus inh
O=C(COc1ccc(F)cc1)Nc1nc(-c2ccccn2)cs1	-29%	-12%
N#Cc1ccccc1S(=O)(=O)Nc1ccc2c(c1)OCCO2	-14%	-2%
COc1ccc(S(=O)(=O)NCC(=O)N(CC(=O)NCc2ccco2)Cc2ccc(F)cc2)cc1	-11%	-4%
CCOC(=O)CCc1nc2ccccc2[nH]c1=O	0%	1%
COCCCNC(=O)Nc1cc(C(=O)NCc2ccc(OC)cc2)ccc1N1CCCC1	-5%	-2%
CCN(CC(=O)Nc1ccc(Cl)c(C(F)(F)F)c1)CC(=O)NC1CCS(=O)(=O)C1 (configuration not stated)	-3%	-11%
CN(CC1CCCO1)S(=O)(=O)c1ccc(C(=O)Nc2nc3cc4c(cc3s2)OCO4)cc1 (configuration not stated)	-14%	-16%
O=C(Oc1ccc(Cl)c2cccnc12)N1CCOCC1	i	-17%
CCC(C)Nc1nc(CN2CCOCC2)nc2sc3c(c12)CCC3 (configuration not stated)	-7%	-13%
O=C(Oc1ccccc1F)C1CCN(C(=O)c2ccc(F)cc2)CC1	-2%	-15%
CCCc1cc(=O)[nH]c(SCC(=O)c2ccc3c(c2)OCCO3)n1	-13%	-7%
Cc1ccn2c(NCc3ccco3)c(-c3ccccc3)nc2c1	-13%	-8%
N#Cc1c(N)nc2c(c1N)CC(C(F)(F)F)O2 (configuration not stated)	-7%	-5%
COc1ccc(OC)c(-c2cc(Cl)c3c(c2)CC(CNC(=O)c2cccnc2SC)O3)c1 (configuration not stated)	-15%	-13%
Nc1nc(N2CCN(C(c3ccccc3)c3ccccc3)CC2)n[nH]1	-16%	-10%
CCCCc1c(O)n2c(nc3ccccc32)[nH]c1=O	·	-18%
O=C(N/N=C\c1ccc2c(c1)OCO2)c1cncc(Br)c1	-11%	9%
Cc1ccc(C(=O)Nc2nc(-c3cccnc3)cs2)o1	-5%	-5%
COc1ccc(-n2c(SCC(=O)Nc3ccc(NC(C)=O)cc3)nc3c([nH]c4ccccc43)c2=O)cc1OC	i	-12%
COc1ccc(/C=C/C2=CCN(C)CC2)cc1	-1%	-13%
CNc1oc(-c2ccc(COc3ccc(C)cc3)o2)nc1C#N	-7%	-9%
Cc1ccc(NCc2ccccc2F)cc1	-19%	1%
COCc1nnc(NS(=O)(=O)c2ccc(Br)cc2)s1	-16%	-6%
Cc1cccc(OCc2nc(C#N)c(NCc3ccccc3Cl)o2)c1	-16%	-3%
CC(C)CCn1c(=O)c2cccnc2n(CC(=O)Nc2ccccc2)c1=O	-8%	-5%

Full records, quoted from the list. Values in the order: VACV mCherry inh	VACV Venus inh
`CCN(CC(=O)Nc1ccc(Cl)c(C(F)(F)F)c1)CC(=O)NC1CCS(=O)(=O)C1` (configuration not stated) as listed: -3%	-11%
`Cc1ccc(C(=O)Nc2nc(-c3cccnc3)cs2)o1` as listed: -5%	-5%

Compounds from the list above containing a halogen (11):
SMILES	VACV mCherry inh	VACV Venus inh
O=C(COc1ccc(F)cc1)Nc1nc(-c2ccccn2)cs1	-29%	-12%
COc1ccc(S(=O)(=O)NCC(=O)N(CC(=O)NCc2ccco2)Cc2ccc(F)cc2)cc1	-11%	-4%
CCN(CC(=O)Nc1ccc(Cl)c(C(F)(F)F)c1)CC(=O)NC1CCS(=O)(=O)C1 (configuration not stated)	-3%	-11%
O=C(Oc1ccc(Cl)c2cccnc12)N1CCOCC1	i	-17%
O=C(Oc1ccccc1F)C1CCN(C(=O)c2ccc(F)cc2)CC1	-2%	-15%
N#Cc1c(N)nc2c(c1N)CC(C(F)(F)F)O2 (configuration not stated)	-7%	-5%
COc1ccc(OC)c(-c2cc(Cl)c3c(c2)CC(CNC(=O)c2cccnc2SC)O3)c1 (configuration not stated)	-15%	-13%
O=C(N/N=C\c1ccc2c(c1)OCO2)c1cncc(Br)c1	-11%	9%
Cc1ccc(NCc2ccccc2F)cc1	-19%	1%
COCc1nnc(NS(=O)(=O)c2ccc(Br)cc2)s1	-16%	-6%
Cc1cccc(OCc2nc(C#N)c(NCc3ccccc3Cl)o2)c1	-16%	-3%

Carrying on.
SMILES	VACV mCherry inh	VACV Venus inh
CC1COc2ccccc2N1S(=O)(=O)c1cc(Cl)ccc1Cl (configuration not stated)	-9%	-6%
CCCn1c(O)c(CN2CCCCC2)c(C)c(C#N)c1=O	·	-11%
CCn1cc(S(=O)(=O)CC(=O)Nc2cc(C)ccc2C)c2ccccc21	-3%	-12%
COc1ccc(Nc2c(-c3ccccn3)nc3ccc(Cl)cn23)cc1	?	?
CCOc1ccc(C(=O)Nc2cc(-c3nc4ccccc4[nH]3)ccc2C)cc1[N+](=O)[O-]	·	?
Cc1nn(CC(C)C)c(Cl)c1C(=O)N(C)CC(=O)Nc1c(Cl)cccc1Cl	-6%	-8%
COc1ccc(C(C(=O)NCC2CCCO2)N(C(=O)Cn2nnc3ccccc32)c2ccc(NC(C)=O)cc2)cc1 (configuration not stated)	i	1%
NS(=O)(=O)c1ccc(CCNC(=O)CSc2nc3ccccc3c(=O)n2CCN2CCOCC2)cc1	-7%	-7%
CC(C)C(=O)NC(=S)NCC(=O)c1ccccc1	-15%	-16%
COc1ccc(C(=O)C[N+]2(C)CCOCC2)cc1	-13%&-2%	-11%&-17%
CC(C)CNC(=O)C1(C)CCCN1C(=O)C(C)(C)Oc1ccc(Cl)cc1 (configuration not stated)	-2%	1%
CCC1CCc2sc(C(=O)NNC(=O)c3ccncc3)cc2C1 (configuration not stated)	-2%	-9%
Cc1cccc(-n2ccnc2SCC(=O)Nc2nc3ccccc3s2)c1	-3%	3%
CCOc1ccccc1NS(=O)(=O)c1ccc(N2CCCCS2(=O)=O)cc1	-7%	-25%
Cc1ccc(N2C(N)=C(C#N)C(c3cccnc3)C3=C2CCCC3=O)cc1 (configuration not stated)	0%[1.46 µM]	-5%
O=C(COC(=O)/C=C/c1ccc(C(F)(F)F)cc1)Nc1ccc2[nH]c(=O)[nH]c2c1	-4%	-10%
CCOC(=O)C1=C(C)OC(N)=C(C(=O)OC)C12C(=O)Nc1ccc(Br)cc12 (configuration not stated)	-6%	-11%
CC(C)(C)n1nc2c(c1NC(=O)COc1ccccc1F)CS(=O)(=O)C2	-5%	-1%
Cc1cc(C)nc(NCC(O)CNc2ccccc2Cl)n1 (configuration not stated)	-27%	-23%
O=C1NCN(CCO)CN1	i	-5%
CCCSc1ccc([C@@H]2[C@H]3C(=O)N(CC)C(=O)[C@H]3[C@]3(C(=O)OC)CCCCN23)cc1OC	i	-23%
CCOc1cc(/C=C2\C(=N)N3N=C(N4CCCCC4)SC3=NC2=O)ccc1OC(=O)c1ccco1	28%	8%
CC(=O)c1ccc(N=Nc2c(C)[nH][nH]c2=O)cc1	i	1%
Cc1ccccc1NC(=O)CSc1nc(=O)n(CCN2CCOCC2)c2c1CCCC2	i	-4%
CC[C@@]1(c2cccc(C)c2)C(=O)N(C(=O)OC)N1C(=O)OC	?	?
Additional entries:
SMILES	VACV mCherry inh	VACV Venus inh
COc1ccccc1CN1C[C@@H]2C[C@@H](c3ccc(Cl)cc3)N3CCC[C@@]23C1=O	-17%	-8%
CCc1ccccc1NC(=O)c1ncoc1-c1ccco1	-13%	6%
O=C1Nc2ccc(F)cc2C12Nc1ccccc1-c1nnc(SCc3ccccc3F)nc1O2 (configuration not stated)	i	2%
O=C(O)c1ccc(CN(c2ccccn2)S(=O)(=O)c2ccccc2)cc1	i	-8%
C=CCn1c(COc2cccc(C)c2)nnc1SCC(=O)c1c[nH]c2c(CC)cccc12	i	-7%
COC(=O)C1C(=O)CC(C)(O)C(C(=O)OC)C1c1ccc2c(c1)OCO2 (configuration not stated)	i	0%
Cc1ccc(OCC(=O)NC(=S)Nc2cccc(C)n2)cc1	-16%	4%
Cc1ccccc1Nc1c(-c2ccc(Cl)cc2)nc2c(C)cccn12	-24%	-20%
O=C(Nc1ccc([N+](=O)[O-])cc1Cl)c1cc(Br)ccc1O	3.5µM*	0.79µM*
OC[C@@H]1CN(Cc2ccc(F)cc2)C[C@H](n2cnc3c(NCc4ccco4)ncnc32)O1	-5%	-7%
CCCNC(=O)CNC(=O)c1ccc(C#N)cc1	i	-6%
CC(=O)c1ccc(NC(=O)c2c3c(nc4ccccc24)C(=O)N(C2CCCCC2)C3)cc1	-12%	-14%
CCOC(=O)c1nn(-c2ccccc2)c2nc(-c3ccc(OC)cc3)c(C#N)c(=O)n12	0%	-6%
O=C(CN1CCN(S(=O)(=O)c2cc(Cl)ccc2Cl)CC1)Nc1ccc2c(c1)OCCO2	·	?
Cc1cccc(/C(N)=N/OC(=O)c2ccc(F)cc2)c1	-10%	-7%
Cc1ccccc1OCC(=O)N(Cc1ccc(N(C)C)cc1)CC1CCCO1 (configuration not stated)	-15%	-14%
CCCOc1ccc(C2c3c(oc4cc(C)c(C)cc4c3=O)C(=O)N2CCCN2CCOCC2)cc1 (configuration not stated)	-12%	-2%
C[C@H]1O[C@@H](OC2CC[C@]3(C=O)[C@H]4CC[C@]5(C)[C@@H](C6=CC(=O)OC6)CC[C@]5(O)[C@@H]4CC[C@]3(O)C2)CC2OC(C)(C)OC21 (some centres not stated)	?	0.28µM*
CCc1ccc(C(=O)c2cn(CC(=O)Nc3ccc(OC)c(Cl)c3)c3nc(C)ccc3c2=O)cc1	-12%	-12%
CSc1ccc(CCNC(=O)C2CCCN(S(=O)(=O)N(C)c3ccc(F)cc3)C2)cc1 (configuration not stated)	-7%	-22%
CC1CC(C)CN(C(=O)COC(=O)Cc2c[nH]c3ccccc23)C1 (configuration not stated)	-4%	2%
COc1ccc(OCC(=O)Nc2ccccc2C(=O)N2CCOCC2)cc1	-2%	-14%
COC(=O)CCCC[C@@H]1O[C@H](CCc2ccccc2)CC2=C1C(=O)OC(C)(C)O2	-6%	12%
O=C(Cc1ccccc1[N+](=O)[O-])NCC(=O)c1ccc2c(c1)OCO2	i	-2%
Cc1cc(O)c(C(=O)/C=C/c2c(F)c(F)c(F)c(F)c2F)c(=O)o1	?	?
Carrying on.
SMILES	VACV mCherry inh	VACV Venus inh
CCCNC(=O)C(Cc1cccc(OC)c1)NC(=O)c1ccc(C(C)(C)C)cc1 (configuration not stated)	i	-11%
Cc1nc2ccccn2c1P(=Nc1ccccc1)(N(C)C)N(C)C	-2%	-6%
CCN(C(=O)CN1CCCc2cc(C)ccc21)c1c(N)n(Cc2ccccc2)c(=O)[nH]c1=O	i	24%
O=C(COC(=O)CNS(=O)(=O)c1ccccc1)NC12CC3CC(CC(C3)C1)C2	-4%	-15%
Cc1cc(C)cc(OCC(=O)OCC(=O)c2ccc3c(c2)NC(=O)CO3)c1	-6%	-24%
COc1ccc(N(C(=O)CNC(=O)c2ccco2)C(C(=O)NC2CCCCC2)c2cccnc2)cc1 (configuration not stated)	i	-9%
COc1ccc(CN2C(=O)C(Cc3ccccc3)Nc3ncnc(N4CCOCC4)c32)cc1 (configuration not stated)	2%	-11%&9%
CCN(CC)C(=O)COc1ccc(Br)cc1Cl	-17%	-19%
C[C@H](O)[C@@H]1C(=O)N2CCc3c([nH]c4ccccc34)[C@@H]2C[C@@H]1N(C)Cc1ccc2c(c1)OCO2	-18%	-15%
CCOC(=O)c1ccc(NC(=O)c2ccc(CN3C(=O)CCn4nc(C)cc43)cc2)cc1	-1%	7%
O=C(NC1CCCCC1)c1cccc(OCc2ccccc2)c1	?	-25%
CCOC(=O)C1=C(COC(=O)C2CC(=O)N(c3ccccc3CC)C2)NC(=O)NC1C (configuration not stated)	-15%	-1%
COc1ccc(S(=O)(=O)NCC(c2ccco2)N2CCOCC2)cc1OC (configuration not stated)	-13%	-4%
COc1ccc(-c2cc(C(F)(F)F)n3nc(C(=O)Nc4cc(C)on4)cc3n2)cc1OC	·	4%
O=C(Nc1nccs1)C(c1ccccc1)N1CCCC1 (configuration not stated)	i	-8%
COc1ccc(/C=C/c2nc(C#N)c(NCCc3ccc(OC)c(OC)c3)o2)cc1OC	-14%	-7%
CC(=O)Nc1ccc(OCC(O)CN2CCN(c3ccc(F)cc3)CC2)cc1 (configuration not stated)	-8%	-7%
C/C(=N/NC(=O)c1ccncc1)c1ccc(NC(=O)c2ccc(Cl)cc2Cl)cc1	-14%	-5%
Nc1nonc1-n1nnc(C(=O)O)c1-c1cccs1	i	-6%
Cc1ccc(S(=O)(=O)N(CCc2ccccc2)CC(=O)Nc2cc(C)ccc2C)cc1	-25%	-12%
COc1ccc(Nc2nc3cc(Cl)c(Cl)cc3n3cnnc23)cc1Cl	-14%	-6%
CN(C(=O)c1ccncc1)c1nnc(-c2cccnc2)s1	-13%	-9%
COC(=O)C(C(=O)OC)c1ccccc1NS(=O)(=O)c1ccc(C)cc1	-22%	-5%
O=C(COC(=O)/C=C/c1cccc(C(F)(F)F)c1)NCc1ccc(F)cc1	-10%	-3%
CC(C)CCN(CCC(C)C)C/C(O)=C(\C#N)c1nc(-c2ccccc2)cs1	-4%	-24%
Next section:
SMILES	VACV mCherry inh	VACV Venus inh
Oc1ccc(Cl)cc1CNCc1ccc(C(F)(F)F)cc1	-18%	?
COc1cc(CCC(=O)OCC(=O)Nc2ccc(F)c(F)c2)cc(OC)c1OC	i	-15%
O=C(Cn1ccn(-c2ccc(F)c(F)c2)c(=O)c1=O)c1ccc(F)cc1	-6%	-7%
CCOC(=O)c1ccc(NC(=S)N(CCCN2CCN(CC)CC2)Cc2ccco2)cc1	-8%	-4%
O=C(NCc1ccco1)C(=S)N1CCCC1	-2%	-2%
O=C(COC(=O)c1cc(S(=O)(=O)N2CCCCC2)ccc1N1CCOCC1)NCCc1ccc(F)cc1	?	-20%
O=C(NC1CCCCCCC1)C1CCC(CNc2c(N3CCCC3)c(=O)c2=O)CC1 (configuration not stated)	i	-20%
Cc1ccc(CNC(=S)Nc2ccc(OC(F)F)cc2C)cc1	i	-13%
